Vaccinia stage = blocks a specific stage of Vaccinia orthopoxvirus infection | hit rate 0.01% among 89,000 | Vaccinia-infected cells, mCherry/Venus stage reporter fluorescence; hits give low values; some inactives read as strong as hits | activity change (mCherry), % (no concentration beside the values);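 active = mCherry past -33% and 40 or more points under the early reporter, replicates agreeing; inconclusive = past -33% without that gap or agreement; tested in A549 cells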;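 also: scaled between vehicle wells and reference inhibitor wells; 23 nL library stock went into each well; one replicate is shown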
Vaccinia stage Venus = second read-out of Vaccinia stage, no call of its own (marks repeat the call); activity change (Venus), %; measured here: Venus reporter, other viral stage;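 negative = less Venus signal; first of two replicates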
Starred values were filed as active, the others as inactive; ? = inconclusive; nt = not tested or not shown; & = joins results of further samples.

Molecule | Vaccinia stage | Vaccinia stage Venus
Cc1ccc(S(=O)(=O)N(C)C[C@H]2Oc3ccc(NC(=O)Nc4ccc(C(F)(F)F)cc4)cc3C(=O)N([C@@H](C)CO)C[C@@H]2C)cc1 | 5 | 5
C[C@H](O)C#Cc1ccc([C@H]2[C@@H](CO)N3CCCCN(C(=O)Nc4ccccc4)C[C@@H]23)cc1 | -20 | -14
CC(C)C#Cc1cnc2c(c1)C(=O)N([C@H](C)CO)C[C@@H](C)[C@@H](CN(C)C(=O)c1cccc(F)c1)O2 | 3 | -3
COc1ccccc1-c1ccc2c(c1)O[C@@H](CN(C)CC1CCOCC1)[C@H](C)CN([C@H](C)CO)S2(=O)=O | ? | nt
CC(=O)N1C[C@H]2[C@@H](c3ccccc31)[C@@H](CO)N2S(=O)(=O)c1ccccc1 | 5 | 13
C[C@@H](NC(=O)[C@@H]1[C@@H](CO)[C@@H]2Cn3c(cccc3=O)[C@@H]2N1CC1CC1)c1ccccc1 | 17 | -1
C[C@@H]1CN([C@H](C)CO)C(=O)c2ccccc2-c2ccccc2CO[C@@H]1CN(C)Cc1ccc(Cl)c(Cl)c1 | -1 | 1
C[C@H](CO)N1C[C@H](C)[C@@H](CN(C)S(=O)(=O)c2ccc(Cl)cc2)Oc2ccc(NC(=O)CCCCCC(=O)Nc3ccccc3N)cc2C1=O | 7 | 8
COc1ccc(CN2C[C@@H](O)COC[C@@H]3O[C@@H](CC(=O)N(C)C)CC[C@H]32)cc1 | 10 | 6
C[C@@H]1CN([C@@H](C)CO)C(=O)c2cc(NC(=O)c3ccncc3)ccc2O[C@@H](C)CCCCO[C@@H]1CN(C)CC1CCCCC1 | -4 | -8
CCC(=O)N[C@H]1C=C[C@@H](CC(=O)NCc2cc(F)cc(F)c2)O[C@@H]1CO | 8 | 1
C[C@@H]1CN([C@H](C)CO)C(=O)c2cc(NC(=O)CCC(F)(F)F)ccc2O[C@@H]1CN(C)Cc1ccc(Cl)c(Cl)c1 | ? | nt
C[C@H]1CN([C@@H](C)CO)C(=O)c2cc(-c3cccnc3)cnc2O[C@@H]1CN(C)C(=O)C1CC1 | 17 | 4
O=S(=O)(N[C@@H]1CC[C@H](CCn2cc(-c3cccc(F)c3)nn2)O[C@H]1CO)c1ccccc1 | -1 | -7
CC=Cc1ccc2n(c1=O)C[C@H]1[C@H](CO)[C@@H](C(=O)NCc3ccc(F)cc3)[C@@H]2N1C (mixture of isomers) | 2 | 6
CC(=O)NC[C@H]1[C@@H](c2ccc(C3=CCCC3)cc2)[C@@H](CO)N1C(=O)C1CCC1 | 6 | 11
CC(C)NC(=O)N(C)C[C@@H]1Oc2ccc(NS(=O)(=O)c3ccc(Cl)cc3)cc2CC(=O)N([C@@H](C)CO)C[C@@H]1C | -6 | -4
C[C@H]1CN([C@@H](C)CO)C(=O)c2cccc(NC(=O)C3CC3)c2O[C@H]1CN(C)S(C)(=O)=O | 3 | 11
COc1ccc(C(=O)N2C[C@H]3[C@@H](c4ccccc42)[C@H](CO)N3C(=O)NC(C)C)cc1 | 3 | -8
CCC(=O)N(C)C[C@@H]1Oc2cc(C#CCOC)ccc2S(=O)(=O)N([C@H](C)CO)C[C@H]1C | 21 | 14
COc1ccc(NC(=O)Nc2ccc3c(c2)[C@@H]2C[C@H](CC(=O)NCc4ccccn4)O[C@H](CO)[C@@H]2O3)cc1 | 5 | 3
CC(C)NC(=O)N(C)C[C@@H]1Oc2ccc(NS(=O)(=O)c3ccc(Cl)cc3)cc2C(=O)N([C@@H](C)CO)C[C@@H]1C | -5 | 7
COc1ccc(CN(C)C[C@@H]2Oc3ccc(NC(=O)CCC(F)(F)F)cc3CC(=O)N([C@H](C)CO)C[C@H]2C)cc1 | 5 | 9
CN1CCN(C(=O)C[C@H]2CC[C@@H]3[C@H](COC[C@@H](O)CN3C(=O)C3CCCC3)O2)CC1 | 7 | 12
O=C(NC1CCCC1)N1CC(=O)N2[C@H](CO)[C@H](c3ccc(C4=CCCC4)cc3)[C@@H]2C1 | -11 | 1
C[C@H]1CN([C@@H](C)CO)C(=O)c2cc(C#CC3CCCC3)cnc2O[C@H]1CN(C)C(=O)Nc1ccccc1 | -18 | -18
CCCC#Cc1ccc([C@@H]2[C@H](CO)N3CCCCN(Cc4ccncc4)C[C@@H]23)cc1 | -22 | -10
CO[C@H]1CN(C)C(=O)c2ccc(NS(C)(=O)=O)cc2OC[C@H](C)N(CCC(F)(F)F)C[C@H]1C | 0 | -8
C[C@H](CO)N1C[C@H](C)[C@@H](CN(C)Cc2ccccn2)Oc2cc(C3=CCCCC3)ccc2S1(=O)=O | ? | nt
COc1ccc2c3c(n(C)c2c1)[C@@H](CO)N(C(=O)Nc1ccc(F)cc1)CC31CN(Cc2ccccc2F)C1 | -26 | -27
C/C=C/c1cnc2c(c1)C(=O)N([C@@H](C)CO)C[C@H](C)[C@@H](CN(C)S(=O)(=O)c1ccc(C)cc1)O2 | -17&-21 | -10&-21
COc1ccc(NC(=O)Nc2ccc3c(c2)C(=O)N([C@H](C)CO)C[C@@H](C)[C@H](CN(C)Cc2ccccc2)OCCCC[C@@H](C)O3)cc1 | ? | nt
C[C@H]1CN([C@@H](C)CO)C(=O)Cc2cc(NS(=O)(=O)c3ccc(F)cc3)ccc2O[C@H]1CN(C)Cc1ccc(C(=O)O)cc1 | 18 | 6
C[C@H]1CN([C@@H](C)CO)S(=O)(=O)c2ccc(C#CC3CCCC3)cc2O[C@H]1CN(C)C(=O)C1CC1 | ? | nt
CC(=O)N1CC2(C1)[C@@H](c1ccccc1)[C@@H](CO)N2C(=O)Cc1ccccc1 | 10 | 15
CC(=O)N1[C@@H]2Cn3c(ccc(C4=CCCCC4)c3=O)[C@H]1[C@@H](C(=O)N[C@H](C)c1ccccc1)[C@@H]2CO | -10 | -3
C[C@@H]1CCCCO[C@@H](CN(C)S(=O)(=O)c2cccs2)[C@@H](C)CN([C@@H](C)CO)C(=O)c2cc(NC(=O)CCC(F)(F)F)ccc2O1 | -10 | -9
CCNC(=O)C[C@H]1CC[C@H](NS(=O)(=O)c2ccc(F)cc2)[C@H](CO)O1 | 10 | 7
Cc1noc(C)c1S(=O)(=O)Nc1ccc2c(c1)C(=O)N([C@@H](C)CO)C[C@@H](C)[C@@H](CN(C)C(=O)Nc1ccc3c(c1)OCO3)OCCCC[C@H](C)O2 | -12 | -9
C[C@@H]1CN([C@@H](C)CO)C(=O)Cc2cc(NC(=O)C3CCCCC3)ccc2O[C@H]1CN(C)Cc1ccc(Cl)c(Cl)c1 | ? | nt
COCC(=O)Nc1ccc2c(c1)C(=O)N(C)C[C@@H](OC)[C@H](C)CN(C(=O)C1CCCC1)[C@@H](C)CO2 | 1 | 0
CCC(=O)N1C[C@H](C)[C@@H](OC)CN(C)C(=O)c2cc(NC(=O)NC3CCCC3)ccc2OC[C@H]1C | 17 | 14
CCCNC(=O)N(C)C[C@@H]1Oc2ncc(-c3ccc(OC)cc3)cc2C(=O)N([C@H](C)CO)C[C@H]1C | 14 | 2
C[C@H]1CCCCO[C@H](CN(C)Cc2ccccc2)[C@@H](C)CN([C@@H](C)CO)C(=O)c2cc(NC(=O)Nc3ccc(C(F)(F)F)cc3)ccc2O1 | ? | nt
Cc1ccc(-c2ccc3c(c2)O[C@H](CN(C)Cc2cccnc2)[C@H](C)CN([C@H](C)CO)S3(=O)=O)cc1 | ? | nt
C[C@H](O)C#Cc1ccc([C@@H]2[C@@H](CO)N3CCCCN(C(=O)c4cccc(F)c4)C[C@@H]23)cc1 | -13 | -13
CO[C@H]1CN(C)C(=O)c2ccc(NC(=O)c3cc(C)on3)cc2OC[C@@H](C)N(C(C)=O)C[C@H]1C | 15 | 25
CC(C)NC(=O)N(C)C[C@@H]1Oc2c(NC(=O)C3CCOCC3)cccc2C(=O)N([C@H](C)CO)C[C@@H]1C | 12 | 9
CN(C)CC(=O)Nc1ccc2c(c1)[C@@H]1C[C@@H](CC(=O)NC3CCCCC3)O[C@@H](CO)[C@@H]1O2 | 16 | 16
O=C(N[C@H]1C=C[C@H](CC(=O)N2CCCCC2)O[C@H]1CO)c1ccc2c(c1)OCO2 | 0 | 3
CC=Cc1ccc2n(c1=O)C[C@@H]1[C@@H](CO)[C@H](C(=O)NCC(F)(F)F)N(CCC)[C@H]21 (mixture of isomers) | 6 | 11
O=C(C[C@@H]1CC[C@@H](NC(=O)C2CCOCC2)[C@H](CO)O1)Nc1ccc(-c2ccccc2)cc1 | -17 | -9
C[C@@H]1CCCCO[C@@H](CN(C)Cc2ccc3c(c2)OCO3)[C@H](C)CN([C@H](C)CO)C(=O)c2cc(NC(=O)Nc3ccc4c(c3)OCO4)ccc2O1 | ? | nt
Cc1noc(C)c1NC(=O)Nc1ccc2c(c1)C(=O)N([C@@H](C)CO)C[C@@H](C)[C@@H](CN(C)S(=O)(=O)c1cn(C)cn1)O2 | 14 | 13
CN1c2ccc(-c3cccc(F)c3)cc2[C@H]2[C@H](CCN2C(=O)Nc2ccccc2F)[C@H]1CO | ? | nt
Cc1ccc(S(=O)(=O)NCC[C@@H]2CC[C@H](NC(=O)c3cccc(F)c3)[C@@H](CO)O2)cc1 | -13 | -4
C[C@H](CO)N1C[C@H](C)[C@H](CN(C)S(=O)(=O)c2ccc(Cl)cc2)Oc2ccc(N(C)C)cc2C1=O | 11 | 11
CCCNC(=O)C[C@H]1C[C@@H]2c3cc(NS(=O)(=O)c4ccc(F)cc4)ccc3O[C@@H]2[C@H](CO)O1 | 11 | 1
COc1ccc2c3c(n(C)c2c1)[C@@H](CO)N(CC1CC1)CC31CN(C(=O)c2cccc(F)c2)C1 | -28 | -16
CO[C@@H]1CN(C)C(=O)c2cc(NC(=O)c3cc(C)on3)ccc2OC[C@H](C)N(C)C[C@@H]1C | 0 | 5

(more compounds)
Under each structure – Vaccinia stage, Vaccinia stage Venus
- O=C(NC1CCC1)[C@H]1[C@H](CO)[C@H]2Cn3c(ccc(-c4cncnc4)c3=O)[C@H]2N1C(=O)NC1CCCC1
  -1, 2
- C[C@@H]1CCCCO[C@@H](CN(C)CC2CC2)[C@@H](C)CN([C@H](C)CO)C(=O)c2cc(N(C)C)ccc2O1
  2, 2
- COc1ccc(CN(C)C[C@H]2Oc3c(NC(=O)c4ccc(-c5nccs5)cc4)cccc3C(=O)N([C@H](C)CO)C[C@@H]2C)cc1
  -4, -9
- CC(C)NC(=O)N(C)C[C@@H]1Oc2c(NC(=O)Nc3ccccc3)cccc2C(=O)N([C@H](C)CO)C[C@H]1C
  -1, 5
- C[C@H](CO)N1C[C@H](C)[C@H](CN(C)C(=O)Nc2ccc3c(c2)OCO3)Oc2c(NS(=O)(=O)c3ccc(Cl)cc3)cccc2C1=O
  -11, -19
- C[C@@H]1CN([C@@H](C)CO)C(=O)Cc2cc(NS(=O)(=O)c3cccs3)ccc2O[C@@H]1CN(C)C(=O)Nc1ccc(C(F)(F)F)cc1
  16, 14
- C[C@H]1CN([C@@H](C)CO)C(=O)Cc2cc(N(C)C)ccc2O[C@@H]1CN(C)Cc1ccc(-c2ccccc2)cc1
  ?, nt
- CO[C@@H](CN(C)S(=O)(=O)c1ccc(F)cc1)[C@@H](C)CN([C@@H](C)CO)S(=O)(=O)c1cccc(Cl)c1
  -18, -8
- C[C@@H]1CN([C@H](C)CO)C(=O)c2cc(NC(=O)C3CC3)ccc2O[C@H]1CN(C)C(=O)Nc1ccc(C(F)(F)F)cc1
  3, 6
- CN1CCN(C(=O)C[C@@H]2CC[C@@H]3[C@H](COC[C@H](O)CN3Cc3ccc(Oc4ccccc4)cc3)O2)CC1
  ?, nt
- Cc1cc(C(=O)Nc2cccc3c2O[C@H](CN(C)C)[C@@H](C)CN([C@@H](C)CO)C3=O)n(C)n1
  6, 8
- C[C@H]1CN([C@@H](C)CO)C(=O)Cc2cc(NC(=O)NC3CCCCC3)ccc2O[C@@H]1CN(C)C(=O)NC1CCCCC1
  0, 4
- Cc1ccccc1-c1ccc([C@H]2[C@@H](CO)N3CCCCN(C(=O)CN4CCOCC4)C[C@H]23)cc1
  3, 1
- Cc1noc(C)c1S(=O)(=O)N(C)C[C@@H]1OCCCC[C@H](C)Oc2ccc(NS(=O)(=O)c3cn(C)cn3)cc2C(=O)N([C@H](C)CO)C[C@@H]1C
  11, 2
- O=C([C@H]1[C@H](CO)[C@H]2Cn3c(cccc3=O)[C@@H]1N2C(=O)CC1CC1)N1CCCCC1
  19, 12

Among those listed so far, these have an aryl methoxy group:
Under each structure – Vaccinia stage, Vaccinia stage Venus
- COc1ccccc1-c1ccc2c(c1)O[C@@H](CN(C)CC1CCOCC1)[C@H](C)CN([C@H](C)CO)S2(=O)=O
  ?, nt
- COc1ccc(CN2C[C@@H](O)COC[C@@H]3O[C@@H](CC(=O)N(C)C)CC[C@H]32)cc1
  10, 6
- COc1ccc(C(=O)N2C[C@H]3[C@@H](c4ccccc42)[C@H](CO)N3C(=O)NC(C)C)cc1
  3, -8
- COc1ccc(NC(=O)Nc2ccc3c(c2)[C@@H]2C[C@H](CC(=O)NCc4ccccn4)O[C@H](CO)[C@@H]2O3)cc1
  5, 3
- COc1ccc(CN(C)C[C@@H]2Oc3ccc(NC(=O)CCC(F)(F)F)cc3CC(=O)N([C@H](C)CO)C[C@H]2C)cc1
  5, 9
- COc1ccc2c3c(n(C)c2c1)[C@@H](CO)N(C(=O)Nc1ccc(F)cc1)CC31CN(Cc2ccccc2F)C1
  -26, -27
- COc1ccc(NC(=O)Nc2ccc3c(c2)C(=O)N([C@H](C)CO)C[C@@H](C)[C@H](CN(C)Cc2ccccc2)OCCCC[C@@H](C)O3)cc1
  ?, nt
- CCCNC(=O)N(C)C[C@@H]1Oc2ncc(-c3ccc(OC)cc3)cc2C(=O)N([C@H](C)CO)C[C@H]1C
  14, 2
- COc1ccc2c3c(n(C)c2c1)[C@@H](CO)N(CC1CC1)CC31CN(C(=O)c2cccc(F)c2)C1
  -28, -16
- COc1ccc(CN(C)C[C@H]2Oc3c(NC(=O)c4ccc(-c5nccs5)cc4)cccc3C(=O)N([C@H](C)CO)C[C@@H]2C)cc1
  -4, -9

Not all compounds are listed (hit frequency here may not be typical).
